Screening data (PubChem)
MT1-MMP act inh: blocks activation of human MT1-MMP; actives 0.061% (n = 360,000); P50281; GFP/RFP ratio change, % at 20 µM; HT1080 RFP-PRO-GFP cells, GFP/RFP ratio fluorescence, overnight; percent of plate control window, DMSO zero;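 active = GFP/RFP ratio change of at least 30% with cell ATP level not reduced by more than half and red fluorescence within 50% of control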; note: strong numbers were not always called active
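Read-out: GFP/RFP fluorescence ratio; Test system: RFP-PRO-GFP reporter HT1080 cells; Compound dosing: single-point 20 µM compound, 1% DMSO; Times: overnight compound exposure at 37 °C.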
UUG fidelity: modulators of start codon recognition fidelity in yeast. S. cerevisiae UUG-firefly luciferase reporter, luminescence/redox ratio. activity score, % at 18.7 µM. actives 0.13% (n = 350,000);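 active = replicate mean at a twofold rise or more, about +100% in these data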;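 note: firefly luciferase made from a UUG start codon reports start codon fidelity; reporter light over untreated wells divided by growth signal over untreated wells; some hits fall short of that in this replicate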
PABP polyA inh: PABP-poly(A) binding inhibition; PABP-poly(A) RNA binding, fluorescence polarization; inhibition, % at 35 µM; actives 1% (n = 290,000);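 active = 50% or more with normal probe brightness, or confirmed in later tests; inconclusive = above 50% with abnormal brightness, or retests that disagree; inactive = below 50% or failed in later tests; about a fifth of its hits are not listed in these tables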;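 note: calls also rest on retests at 20 µM and on dose response follow-up; controls were probe without protein and protein plus probe with vehicle; some compounds called inactive have numbers as strong as hits; many hits fall short of the cut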
Target sequence (P11940 whole entry, looked up): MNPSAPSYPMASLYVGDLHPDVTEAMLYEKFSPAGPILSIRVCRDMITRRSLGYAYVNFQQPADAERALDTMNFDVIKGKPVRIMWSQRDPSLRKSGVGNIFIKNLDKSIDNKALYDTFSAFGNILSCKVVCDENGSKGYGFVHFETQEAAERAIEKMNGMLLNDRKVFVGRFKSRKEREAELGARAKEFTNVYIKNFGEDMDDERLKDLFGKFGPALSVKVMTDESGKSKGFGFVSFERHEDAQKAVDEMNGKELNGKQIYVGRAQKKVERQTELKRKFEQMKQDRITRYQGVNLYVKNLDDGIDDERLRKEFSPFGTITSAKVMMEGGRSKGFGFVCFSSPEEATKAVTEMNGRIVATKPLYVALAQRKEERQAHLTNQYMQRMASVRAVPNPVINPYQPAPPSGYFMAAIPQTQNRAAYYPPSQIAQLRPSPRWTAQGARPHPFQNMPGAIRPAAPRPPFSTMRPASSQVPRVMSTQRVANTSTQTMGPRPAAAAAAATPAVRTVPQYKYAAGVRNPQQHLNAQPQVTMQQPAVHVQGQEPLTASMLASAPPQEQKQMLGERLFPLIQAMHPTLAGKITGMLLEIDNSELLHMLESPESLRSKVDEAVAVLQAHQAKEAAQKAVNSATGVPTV
HIV Env fusion: blocks HIV Env-driven cell-cell fusion; HeLa-JRFL Env/CEM21 cell fusion, luciferase; inhibition, % at 12.3 µM; actives 1.1% (n = 360,000);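 active = mean replicate inhibition score of at least 50 and every replicate individually at or above 50; inconclusive = only one of the two criteria met; inactive = mean below 50 and not all replicates reaching 50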;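 note: 0% = plate neutral controls and 100% = maraviroc near 300 nM; one replicate is shown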
Rce1 inhib: blocks yeast Ras-converting enzyme; Q03530; AID 2563; calls only; yeast membranes, quenched prenylated peptide cleavage fluorescence; actives 0.27% (n = 290,000);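 active = fall in fluorescence gain of 50% or more versus controls, with final raw signal at or below 3038400; inconclusive = same 50% fall but final raw signal above 3038400; inactive = fall in fluorescence gain under 50%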;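 note: plate controls were neutral control wells for no effect and wells lacking membranes for full effect; tested at 10 µM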
CSC inhib: blocks cancer stem cells; inhibition, % at 7.5 µM; actives 1.1% (n = 300,000); cancer stem cell-like cells viability, luminescence;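 active = mean at 75% or more and at least half the replicates too; inconclusive = mean and replicates disagree; tested in HMLE shEcad cells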;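 note: 0% = median of negative and 100% = median of positive control wells; the first replicate is given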
eIF4H FP inh: inhibitors of RNA binding by human eIF4H; AID 2012; actives 0.94% (n = 290,000); inhibition, % at 35 µM; Q15056; eIF4H fluorescence polarization binding assay;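 active = 50% or more with normal probe brightness, or confirmed in later tests; inconclusive = above 50% with abnormal brightness, or retests that disagree; inactive = below 50% or failed in later tests; about a fifth of its hits are not listed in these tables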;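 note: calls also rest on retests at 20 µM and on dose response follow-up; 0% = protein and probe with vehicle and 100% = probe without protein; strong numbers were not always called active; many hits fall short of the cut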
eIF4H FP inh retest: recorded beside eIF4H FP inh, whose call it bears; inhibition, %; compound at 20 µM; confirmation average;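 mean of two retest wells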
PABP polyA inh retest: second read-out of PABP polyA inh, no call of its own (marks repeat the call); inhibition, %; compound at 20 µM; confirmation repeats;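 mean of two retest wells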
MT1-MMP act inh RFP: recorded beside MT1-MMP act inh, whose call it bears; RFP signal change, %; measured here: RFP expression control read;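 0 = vehicle wells; hits needed this value within 50% of zero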
* hit, by the source's call; i = inactive; ? = inconclusive; / = not tested or not shown; & = joins results of further samples; [ ] = remark or other dose.

SMILES | MT1-MMP act inh | MT1-MMP act inh RFP | UUG fidelity | PABP polyA inh | HIV Env fusion | Rce1 inhib | CSC inhib | eIF4H FP inh | others
COc1ccc(-n2c(SCC(=O)Nc3ccc4c(c3)OCO4)nnc2C(C)N2CCCCC2)cc1 (configuration not stated) | -6 | -1 | -1 | 6 | -79 | i | -3 | -2
COc1ccc(N2C(=NC(=O)c3ccc(Br)cc3)SC3CS(=O)(=O)CC32)cc1 (configuration not stated) | -2 | -4 | -2 | / | / | / | -9 | /
Cc1cc(C)n(CCC(=O)N2CCCC(N3CCN(c4cccc(Cl)c4)CC3)C2)n1 (configuration not stated) | -4 | 0 | -8 | -2 | -8 | i | -3 | -6
CSc1oc(-c2ccc(F)cc2)nc1S(=O)(=O)c1ccc(F)cc1 | 5 | -1 | -17 | 18 | / | i | 12 | -6
COc1ccccc1NC(=O)CSc1nnc(CCC(=O)Nc2ccccc2F)n1C | -3 | 4 | 4 | 12 | -6 | i | -14 | 16
COc1ccc2sc(N(CCCN(C)C)C(=O)c3ccc(S(=O)(=O)N4CCCC4)cc3)nc2c1 | 7 | 3 | 0 | / | -15 | i | 7 | /
Cc1c(C(=O)NCCO)sc2nc3n(c(=O)c12)CCC3 | 5 | -3 | / | -10 | -9 | i | -17 | -17
CCOc1ccc(S(=O)(=O)Nc2cccc(C(=O)N3CCN(C(C)=O)CC3)c2)cc1 | -4 | -5 | -6 | / | -37 | i | 0 | /
Cc1cc(C)n(-c2nc(Nc3ccccc3)nc(-n3nc(C)cc3C)n2)n1 | 5 | 2 | -2 | 7 | / | i | 7 | 26
CNC(=O)c1cc2ccccc2o1 | 2 | 6 | -15 | 7 | / | i | 10 | 1
COC(=O)c1ccc(CN2C(=O)NC3(CCCCC3C)C2=O)o1 (configuration not stated) | 6 | 3 | -11 | -10 | / | i | 8 | 9
Cc1cccc(C)c1OCC(=O)Nc1c(C)nn(C)c1C | 0 | 0 | -16 | -4 | -1 | i | -5 | 2

A draw from above in order of formula weight, low to high.
SMILES | MT1-MMP act inh | MT1-MMP act inh RFP | UUG fidelity | PABP polyA inh | HIV Env fusion | Rce1 inhib | CSC inhib | eIF4H FP inh | others
CNC(=O)c1cc2ccccc2o1 | 2 | 6 | -15 | 7 | / | i | 10 | 1
Cc1cccc(C)c1OCC(=O)Nc1c(C)nn(C)c1C | 0 | 0 | -16 | -4 | -1 | i | -5 | 2
COC(=O)c1ccc(CN2C(=O)NC3(CCCCC3C)C2=O)o1 (configuration not stated) | 6 | 3 | -11 | -10 | / | i | 8 | 9
CCOc1ccc(S(=O)(=O)Nc2cccc(C(=O)N3CCN(C(C)=O)CC3)c2)cc1 | -4 | -5 | -6 | / | -37 | i | 0 | /

The results go on:
SMILES | MT1-MMP act inh | MT1-MMP act inh RFP | UUG fidelity | PABP polyA inh | HIV Env fusion | Rce1 inhib | CSC inhib | eIF4H FP inh | others
CCc1ccc(NC(=S)/N=C(\N)Nc2nc(C)c3cc(CC)ccc3n2)cc1 | -11 | -14 | / | 15 | 23 | i | 22 | 0
Cc1cccc(NC(=O)c2cc(-c3cc(Cl)ccc3O)n[nH]2)c1 | 4 | 0 | -5 | -8 | / | i | 27 | 0
Nc1ncnc2c1ncn2Cc1ccccc1 | 1 | 6 | -8 | 7 | 5 | i | 1 | -5
S=C(Nc1cccc(Br)c1)c1ccccc1 | 3 | -1 | / | -2 | -16 | i | 5 | -4
CCCNC(=O)c1ccccc1NC(=O)c1ccc2c(=O)n3c(nc2c1)CCC3 | 16 | 0 | / | / | 13 | i | 2 | /
COc1ccc(NS(=O)(=O)c2cccc(C(=O)NCCCN3CCOCC3)c2)cc1 | 5 | 5 | -12 | / | 13 | i | -6 | /
CC(=O)N1CCc2cc(S(=O)(=O)N3CCc4ccccc43)ccc21 | 11 | -17 | -16 | -7 | 11 | i | 1 | -11
O=C1C2ON(c3ccccc3)C(c3ccccn3)C2C(=O)N1c1ccc(Br)cc1 (configuration not stated) | 0 | 2 | -6 | 6 | / | i | -8 | -2
CCC(=O)N(Cc1cccs1)C1CCOC(C)(C)C1 (configuration not stated) | 3 | 6 | -10 | -6 | / | / | / | -8
O=C(COC(=O)c1ccc(NS(=O)(=O)c2ccc(Br)s2)cc1)NC1CCCC1 | 2 | 2 | / | 1 | 11 | i | -9 | 2
CCOc1ccc(C(C)(N)C(=O)O)cc1 (configuration not stated) | 2 | -1 | 3 | 17 | -13 | i | -1 | 0
Cc1ccc(C(=O)/C=C/c2ccc3ncccc3c2)cc1 | 1 | -11 | -24 | -15 | 19 | i | 27 | -5
COCCCN(C(=S)NC(=O)C(C)(C)C)c1c(N)n(Cc2ccccc2)c(=O)[nH]c1=O | -7 | 3 | -19 | 1 | 9 | i | 0 | -7
CCc1cccc(NC(=O)CCS(=O)(=O)c2ccc3c(c2)NC(=O)CO3)c1 | -2 | -1 | -6 | 10 | 0 | i | -11 | -18
Cn1c(SCC(=O)c2ccccc2)nc2cccnc21 | -1 | 1 | -6 | 4 | / | i | -19 | -4
O=C(Nc1ccccc1)C1=C[C@@H](c2ccc3c(c2)OCO3)C[C@@H](OCCCCO)O1 | 2 | 3 | -6&-16 | / | -45[16.7 µM] | i | 15 | /
Cc1cc(C)c(NC(=O)CSc2nnc(Cc3cccn3C)n2-c2ccc(F)cc2)c(C)c1 | 1 | 1 | -2 | 3 | / | i | -7 | 3
O=S(=O)(Nc1ccc(Cl)cc1)c1ccc(N2CCOCC2)c(NC(=S)NC2CC2)c1 | -2 | -7 | -9 | 0 | 7 | i | 2 | -4
O=C(NNC(=O)c1c(F)cccc1F)c1sccc1-n1cccc1 | 1 | 2 | / | 9 | -27 | i | -1 | -12
CC(=O)c1cccc(NC(=O)COC(=O)COc2ccc(Cl)cc2)c1 | 2 | 4 | -8 | -14 | -9 | i | 7 | -9
COC(=O)[C@@H]1CCCN1C(=O)[C@@H](NC(=O)OC(C)(C)C)C(C)C | 0 | 3 | -14 | / | 13 | i | 5 | /
COc1ccc(CN2CCCC(N3CCN(c4cccc(Cl)c4)CC3)C2)cc1OC (configuration not stated) | 1 | -3 | -6 | -1 | 4 | i | -9 | 3
Cc1ccc(S(=O)(=O)N(C)C)cc1NC(=O)CSc1ccc2c(c1)OCCO2 | 2 | 0 | -2 | / | 1 | i | 20 | /
CN(CC(=O)Nc1ccc(Cl)c(C(F)(F)F)c1)C(=O)c1cc(-c2ccncc2)nc2ccccc12 | -2 | -8 | -4 | / | 18 | i | / | /
N=C1C(c2ccccc2)=C(O)CN1CCO | / | / | / | -7 | 21 | / | -4 | 6
COc1ccc(C2/C=C\CN(C(=O)c3ccccc3)CC(=O)N2Cc2cccc(F)c2)cc1 (configuration not stated) | 0 | -1 | 7 | / | -72 | / | / | /
O=C(Nc1ccc(-c2n[nH]c(=S)o2)cc1)c1ccccc1 | -4 | 0 | -7 | 0 | -10 | i | -2 | -6
Clc1ccccc1CSC1=NCCN1 | 7 | 5 | 17 | 1 | -12 | i | 9 | -7
CC(=O)C1=CCC(c2ccc(Br)cc2)N(S(=O)(=O)c2ccc(C)cc2)C1 (configuration not stated) | 1 | -6 | 0 | / | -4 | / | / | /
O=C(Cc1ccc([N+](=O)[O-])cc1)NNC(=O)c1ccc2c(c1)OCO2 | -2 | 2 | -1 | -12 | -3 | i | 10 | -16
O=C(COc1ccccc1)Nc1ccncc1 | 2 | -4 | / | 2 | 0 | i | -5 | -5
C=CCN1C(=O)C(O)(CC(=O)c2ccccn2)c2ccccc21 (configuration not stated) | 3 | 6 | / | -1 | 12 | i | 12 | 4
CC(C)OCCOc1ccc2oc(-c3ccco3)cc(=O)c2c1 | -3 | 1 | -2 | 28 | -3 | i | -6 | 57 | eIF4H FP inh retest=47;PABP polyA inh retest=38
COc1ccc(C(C)(O)c2nc(-c3cccc(C(F)(F)F)c3)cs2)cc1 (configuration not stated) | -1 | -6 | -8 | / | -16 | / | / | /
Cc1ccc(C)c(OCCC(=O)OCC(=O)NCCNC(=O)COC(=O)CCOc2cc(C)ccc2C)c1 | -3 | -2 | -9 | / | -12 | i | 1 | /
NS(=O)(=O)c1cccc(NC(=O)COC(=O)c2cc(Cl)ccc2[N+](=O)[O-])c1 | 0 | 0 | -19 | 9 | -4 | i | -14 | -5
Cc1c(C(=O)O)sc2nc(SCC(=O)Nc3ccc(S(=O)(=O)NCCCC(=O)O)cc3)[nH]c(=O)c12 | -3 | -1 | / | 82 | -9 | i | -3 | 1.1* | eIF4H FP inh retest=85*;PABP polyA inh retest=9
Cc1ccc2c(c1)N(CC(=O)NCc1cccnc1)C(=O)CO2 | -1 | -1 | -7 | 0 | -57 | i | 7 | 6
C[C@H](NC(=O)CCCOc1ccc(Cl)cc1Cl)c1nnc2ccccn12 | 0 | -2 | -9 | 0 | 6 | i | -31 | -13
CC(C)c1nnc(NC(=O)CCC(=O)NC2CCCc3ccccc32)s1 (configuration not stated) | 3 | 6 | -10 | 1 | 0 | i | -18 | 5
CCn1c(SCC(=O)NC2=NCCS2)nnc1C(C)NC(=O)c1ccccc1Br (configuration not stated) | 1 | 2 | -6 | 3 | 2 | i | -2 | -14
O=C(O)c1ccccc1C(=O)NCc1c(Cl)cccc1Sc1ccc(Cl)cc1 | 0 | -1 | -15 | 2 | 19 | i | 0 | 8
O=[N+]([O-])c1c(N2CCN(CCO)CC2)nc2ccccn12 | -1 | 5 | -12 | 9 | -14 | i | -3 | 6
Cc1cc(NC(=O)CSc2nccn2-c2cccc(F)c2)no1 | 4 | 1 | / | / | -3 | / | -10 | /
CC(C)(C)C(Cn1ccnc1)NC(=O)c1ccc2nc(C3CC3)oc2c1 (configuration not stated) | -4 | 0 | -16 | 6 | 27 | i | 9 | 3
COc1ccc(C(O)c2nccn2Cc2ccccc2)cc1OC (configuration not stated) | -4 | -10 | -20 | -3 | 26 | i | -10 | -10
CCCCNC(=O)Cn1c(-c2ccc(OC)cc2)noc1=O | 2 | 0 | -21 | 2 | -14 | i | -7 | 0
O=C(NCCO)c1cccc(-c2cccc3nncn23)c1 | 4 | 7 | -4 | / | ? | / | / | /
CCC(=O)Nc1c2c(nn1-c1cccc(Cl)c1)CS(=O)(=O)C2 | 2 | 4 | -10 | 6 | -2 | i | 2 | -4
CC(=O)C1=C(NC(=O)c2ccc(C(F)(F)F)cc2)C[C@@H]2[C@H]1C2(C)C | 2 | -6 | -2 | 1 | -13 | i | 16 | -6
CCOC(=O)C(=O)c1c(C)cc2ccccn12 | 4 | 8 | / | 4 | -3 | / | / | -1
CCOC(=O)c1c(Cl)c(C)nn1-c1nc(OC)cc(OC)n1 | 1 | 1 | / | 2 | 7 | i | -7 | 6
Cc1nc2ccc(C(=O)N3CCN(Cc4ccccc4)CC3)cc2[nH]1 | 2 | 1 | -18 | -4 | 25 | i | / | -4
O=C(NNC(=O)C1CC=CCC1C(=O)O)c1ccc(Cl)cc1 (configuration not stated) | 0 | 6 | / | 49 | 15 | i | -1 | 0
O=C(COc1ccc([N+](=O)[O-])cc1)NCc1ccccc1 | 3 | -2 | -11 | -4 | -16 | i | / | 4
Cn1nc(C(F)(F)F)cc1Oc1ncc(C(F)(F)F)cc1Cl | -1 | 3 | / | -10 | 7 | i | -7 | -2
CCc1ccc(C(=O)COC(=O)c2nn(C)c(=O)c3ccccc23)cc1 | 4 | 4 | -5 | 9 | -1 | i | 0 | 6

Some of the compounds tested; count on the stated rates, not on these rows.
